Assay outcomes: PubChem, National Center for Advancing Translational Sciences (NCATS)
gsp antag: qHTS for Antagonists of gsp, the Etiologic Mutation Responsible for Fibrous Dysplasia/McCune-Albright Syndrome: qHTS. 340,000 compounds, 0.4% hits. Potency, µM (top dose mostly 76.9 µM), inactives show at the top dose activity change, negative = inhibition, usual class: inhibitors. gsp-mutant cells, cAMP HTRF, 30 min; control for the full effect not named in the record. AID 624288, 2012; active = falling curve of any shape with a large fitted effect; inconclusive = falling curve, mostly with a smaller effect; inactive = flat or rising curve; cell line not stated here;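 note: intracellular cAMP measured with PDE inhibitor Ro 20-1724 present during compound exposure; potency is the fitted concentration of half-maximal effect; % is set by controls: 0 for no effect and ±100 for the full control effect; nearly all actives have a fitted effect of over 65% in size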
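Measurement of cellular cAMP by homogeneous time-resolved fluorescence following a 30 min compound exposure at 37C. The PDE inhibitor […] was present throughout; the assay buffer was DPBS with 0.05% BSA and 0.005% Tween 20.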
gsp ag: qHTS for Agonist of gsp, the Etiologic Mutation Responsible for Fibrous Dysplasia/McCune-Albright Syndrome: qHTS | gsp mutant cells, cAMP HTRF, 30 min; control for the full effect not named in the record | Potency, µM (titrated, usually from 76.9 µM), inactives show top-dose activation (cAMP increase), hits mostly activators | 340,000 compounds, 0.13% hits; active = well fitted activation curve with a large enough effect; inconclusive = small, poorly fitted or top-dose-only effect, or another doubt; inactive = no such curve, though single readings can be large or run the other way; cell line not stated here;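 note: phosphodiesterase inhibitor Ro 20-1724 added with compounds to block cAMP breakdown; potency is the fitted concentration of half-maximal effect; nearly all actives have a fitted effect of over 60% in size; about a fifth of the inactives were tested at one dose only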
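Cells in DMEM/10% FBS with G418 were pretreated with compounds in DMSO plus […] (300 uM stock) for 30 min at 37C. cAMP was measured by HTRF (cAMP-d2 plus anti-cAMP antibody-K) after 30 min at room temperature.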
D2 potentiator: Beta-Arrestin HTS for Positive Allosteric Modulators of the Human D2 Dopamine Receptor: Potentiators; 360,000 compounds, 0.23% hits; DiscoveRx D2 beta-arrestin cells, luminescence, 90 min; 100% = 57 uM dopamine signal; AID 624464, 2012; potentiation, % (no concentration beside the values); active = potentiation of 50% or more; inconclusive = 30% to 50%; inactive = 30% or less;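 note: compound concentration not given in the record; tested on top of an EC20 dose of dopamine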
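PathHunter beta-arrestin assay in DiscoveRx D2 cells. Compounds were added with an EC20 of dopamine (50 nM final) for 90 min at 37 deg C. Luminescence was read 1 h after detection reagent, with 57 uM dopamine as the EC100 control.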
Six1-Eya2 inh: qHTS Assay for Inhibitors of the Six1/Eya2 Interaction | AlphaScreen GST-Six1/His-Eya2 binding, biochemical; active compounds read low; control for the full effect not named in the record | Homeobox protein SIX1 (Homo sapiens) + Protein phosphatase EYA2 (Homo sapiens), … | 360,000 compounds, 0.56% hits | activity change, % (no concentration beside the values); in the data active = activity change below about -65%; inconclusive = about -30% to -65%; inactive = above about -30%; note: % is set by controls: 0 for no effect and ±100 for the full control effect
Target sequence (O00167 whole entry, looked up): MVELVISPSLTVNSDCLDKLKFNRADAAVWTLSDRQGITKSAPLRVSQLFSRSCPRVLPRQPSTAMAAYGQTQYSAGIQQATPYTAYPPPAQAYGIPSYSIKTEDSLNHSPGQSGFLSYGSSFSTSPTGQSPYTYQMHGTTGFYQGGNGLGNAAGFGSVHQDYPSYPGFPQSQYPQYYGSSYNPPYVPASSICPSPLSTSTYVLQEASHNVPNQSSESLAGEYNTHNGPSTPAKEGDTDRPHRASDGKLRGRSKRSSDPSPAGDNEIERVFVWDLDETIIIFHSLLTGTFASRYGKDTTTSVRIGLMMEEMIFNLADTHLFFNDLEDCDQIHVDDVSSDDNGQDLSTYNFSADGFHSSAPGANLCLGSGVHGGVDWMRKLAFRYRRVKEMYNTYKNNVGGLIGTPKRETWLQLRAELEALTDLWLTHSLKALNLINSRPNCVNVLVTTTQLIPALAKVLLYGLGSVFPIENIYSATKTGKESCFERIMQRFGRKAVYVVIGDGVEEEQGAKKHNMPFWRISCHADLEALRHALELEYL
Target sequence (Q15475 whole entry, looked up): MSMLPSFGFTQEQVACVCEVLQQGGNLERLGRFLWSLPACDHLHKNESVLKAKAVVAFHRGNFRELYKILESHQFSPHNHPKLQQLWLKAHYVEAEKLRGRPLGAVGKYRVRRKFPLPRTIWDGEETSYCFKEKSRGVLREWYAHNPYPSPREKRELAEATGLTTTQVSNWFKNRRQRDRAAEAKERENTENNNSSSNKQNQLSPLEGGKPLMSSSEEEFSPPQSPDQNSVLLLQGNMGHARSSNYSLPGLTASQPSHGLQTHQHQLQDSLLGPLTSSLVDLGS
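Homogeneous AlphaScreen proximity assay pairing GST-Six1 with His-tagged Eya2 (added as 5X mix: 250 nM and 500 nM) in 50 mM Tris pH 8.0, 300 mM NaCl, 1 mM TCEP. Glutathione donor and nickel acceptor beads; 1 h, 37 °C, dark.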
D2 agonist: Beta-Arrestin HTS for Positive Allosteric Modulators of the Human D2 Dopamine Receptor: Agonists. 360,000 compounds, 0.084% hits. AID 624465, 2012. D(2) dopamine receptor (Homo sapiens), P14416. activation, % (no concentration beside the values). DiscoveRx PathHunter D2 beta-arrestin, luminescence, 90 min; 100% = 57 uM dopamine signal; in the data active = activation above about 40%; inconclusive = about 15% to 40%; inactive = below about 15%; note: compound concentration not given in the record; the text of the record calls up to 30% inactive
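Agonist mode: compounds alone added to overnight-plated D2 PathHunter cells for 90 min at 37 C, with 57 uM final dopamine (EC100) defining full response. Beta-arrestin recruitment detected by chemiluminescent reagent, read after 1 h at ambient temperature.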
CtBP-E1A inh: qHTS Assay for Inhibitors of the CtBP/E1A Interaction. 340,000 compounds, 0.49% hits. CtBP / adenovirus E1A interaction (AlphaScreen). AID 651724, 2012. AlphaScreen GST-E1A/His-CtBP binding, 1536-well; active compounds read low; control for the full effect not named in the record. activity change, % (concentration not given with the values); in the data active means activity change below about -65%; inconclusive means about -30% to -65%; inactive means above about -30%; note: % is set by controls: 0 for no effect and ±100 for the full control effect
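GST-E1A and His-tagged CtBP (125 nM each as 5X stock) were preincubated with pin-transferred compound for 2 h at 37 °C in the dark, then glutathione donor and nickel acceptor beads were added for 1 h before AlphaScreen reading.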
* marks the source's active call; other numbers are inactive results; [ ] = remark or other dose. Rows are unselected; overall some 1.4% were active at least once.

Results for C=C(C)Cn1cnc2c(oc3nc4c(cc32)CCCC4)c1=O ?
gsp antag: -13%; gsp ag: 14%; D2 potentiator: -17; Six1-Eya2 inh: 4; D2 agonist: -5.2

Results for CC1(C)CC(CC(=O)O)(c2ccc(F)cc2)CCO1 (stereo not given) ?
gsp antag: 11%; gsp ag: -43%[inhibitor]; D2 potentiator: -4; Six1-Eya2 inh: 5; D2 agonist: -0.9; CtBP-E1A inh: 10

How did Cc1ccccc1C(=O)NNC(=O)c1cccc(Br)c1 do in these assays?
gsp antag: 6%; gsp ag: 9%; D2 potentiator: 14; Six1-Eya2 inh: -2; D2 agonist: 3.0

How did CCOC(=O)c1c(C)cc(=O)oc1C do in these assays?
gsp antag: 10%; gsp ag: 0%; D2 potentiator: 3; Six1-Eya2 inh: 0; D2 agonist: -3.2; CtBP-E1A inh: -4

How did Cc1c(C(=O)N2CCC(C)CC2)sc2ncn(CC(=O)N3CCC(C)CC3)c(=O)c12 do in these assays?
gsp antag: 6%; gsp ag: inconclusive; D2 potentiator: -8; Six1-Eya2 inh: 4; D2 agonist: -3.2; CtBP-E1A inh: 9

Results for COC(=O)Cc1ccc(NC(=S)NCc2ccc(F)cc2)cc1 ?
gsp antag: 7%; gsp ag: -7%; D2 potentiator: 14; Six1-Eya2 inh: 0; D2 agonist: -0.3; CtBP-E1A inh: 3

What do the screens show for `CCOc1ccc(OCCC(=O)N(CCC(C)C)c2c(N)n(Cc3ccccc3)c(=O)[nH]c2=O)cc1`?
gsp antag: 4%; gsp ag: -56%; D2 potentiator: 13; Six1-Eya2 inh: 14; D2 agonist: 0.3; CtBP-E1A inh: -18

How did COc1ccccc1C(=O)COC(=O)C1CCN(S(=O)(=O)c2ccc(C)c(C)c2)CC1 do in these assays?
gsp antag: -5%; gsp ag: 5%; D2 potentiator: 1; Six1-Eya2 inh: 3; D2 agonist: inconclusive; CtBP-E1A inh: 2

How did COc1ccccc1CCC(=O)NNC(=O)c1cccs1 do in these assays?
gsp antag: 6%; gsp ag: -2%[15.4 µM]; D2 potentiator: -26; Six1-Eya2 inh: -3; D2 agonist: -0.2; CtBP-E1A inh: 6

Results for COc1cc(NC2c3ccccc3C(=O)N2c2ccc(C)cn2)cc(OC)c1OC (stereo not given) ?
gsp antag: -3%; gsp ag: -52%; D2 potentiator: 0; Six1-Eya2 inh: -1; D2 agonist: 2.7; CtBP-E1A inh: -4

Results for O=C(Cn1c2ccccc2c(=O)c2ccccc21)N/N=C/c1cc([N+](=O)[O-])ccc1N1CCCCCC1 ?
gsp antag: 9%; gsp ag: -7%[15.4 µM]; D2 potentiator: 7; Six1-Eya2 inh: -4; D2 agonist: 2.6; CtBP-E1A inh: 5

What do the screens show for `COc1ccc(C(=O)N2CCc3ccccc32)cc1`?
gsp antag: 0%; gsp ag: 21%; D2 potentiator: -6; Six1-Eya2 inh: 10; D2 agonist: -1.3; CtBP-E1A inh: 12

How did O=[N+]([O-])c1ccc(N2CCc3ccccc3C2)cc1 do in these assays?
gsp antag: -7%; gsp ag: -13%; D2 potentiator: -18; Six1-Eya2 inh: -6; D2 agonist: -4.8

What do the screens show for `CC(=O)Nc1ccc(S(=O)(=O)Oc2ccccc2N2CCCCC2)cc1`?
gsp antag: -3%; gsp ag: -4%[15.4 µM]; D2 potentiator: -2; Six1-Eya2 inh: -3; D2 agonist: 0.4; CtBP-E1A inh: 8

How did COc1ccc(CNC(=O)c2cccc(S(=O)(=O)N3CCCCC3)c2)cc1OC do in these assays?
gsp antag: -26%; gsp ag: -17%; D2 potentiator: -1; Six1-Eya2 inh: -3; D2 agonist: 3.8; CtBP-E1A inh: 2

Grouped by structure, the compounds so far containing a halogen (3)
Results for CC1(C)CC(CC(=O)O)(c2ccc(F)cc2)CCO1 (stereo not given) ?
gsp antag: 11%; gsp ag: -43%[inhibitor]; D2 potentiator: -4; Six1-Eya2 inh: 5; D2 agonist: -0.9; CtBP-E1A inh: 10

How did Cc1ccccc1C(=O)NNC(=O)c1cccc(Br)c1 do in these assays?
gsp antag: 6%; gsp ag: 9%; D2 potentiator: 14; Six1-Eya2 inh: -2; D2 agonist: 3.0

Results for COC(=O)Cc1ccc(NC(=S)NCc2ccc(F)cc2)cc1 ?
gsp antag: 7%; gsp ag: -7%; D2 potentiator: 14; Six1-Eya2 inh: 0; D2 agonist: -0.3; CtBP-E1A inh: 3

(more compounds)
How did CN(C)C(CNC(=O)c1cc(S(=O)(=O)N(C)Cc2ccccc2)ccc1Cl)c1ccco1 (stereo not given) do in these assays?
gsp antag: -20%; gsp ag: 5%; D2 potentiator: -12; Six1-Eya2 inh: -2; D2 agonist: 0.6; CtBP-E1A inh: -2

Results for CCOc1ccc(NC(=O)c2ccc(Cn3nc(C)cc3C)o2)cc1 ?
gsp antag: -14%; gsp ag: 3%; D2 potentiator: -8; Six1-Eya2 inh: 6; D2 agonist: -0.9; CtBP-E1A inh: 6

Results for CC(C)(C)n1nnnc1C(c1cccc(C(F)(F)F)c1)N1CCC(O)CC1 (stereo not given) ?
gsp antag: -4%; gsp ag: -26%; D2 potentiator: -12; Six1-Eya2 inh: -2; D2 agonist: -4.2; CtBP-E1A inh: 8

How did Cc1cc(C)n2c(SCC(=O)NCc3ccco3)nnc2n1 do in these assays?
gsp antag: 9%; gsp ag: -1%; D2 potentiator: -14; Six1-Eya2 inh: -1; D2 agonist: 0.2; CtBP-E1A inh: -1

Results for CCOc1ccccc1N1CCN(C(=O)c2ccc(NS(=O)(=O)c3ccc4[nH]c(=O)[nH]c4c3)cc2)CC1 ?
gsp antag: 6%; gsp ag: -3%[15.4 µM]; D2 potentiator: 6; Six1-Eya2 inh: -26; D2 agonist: -0.4; CtBP-E1A inh: -22

What do the screens show for `CC(=O)c1c(C)[nH]c(C(=O)COC(=O)c2c(C)noc2C)c1C`?
gsp antag: -2%; gsp ag: 11%; D2 potentiator: -4; Six1-Eya2 inh: 8; D2 agonist: -4.5

Results for COc1ccc(C(=O)Nc2ccc(NC(=O)c3ccccn3)cn2)cc1 ?
gsp antag: -20%; gsp ag: 11%[15.4 µM]; D2 potentiator: -10; Six1-Eya2 inh: -27; D2 agonist: -3.5; CtBP-E1A inh: -3

How did COc1ccc(-c2cn3cccc(C)c3n2)cc1Br do in these assays?
gsp antag: -4%; gsp ag: 13%[15.4 µM]; D2 potentiator: 23; Six1-Eya2 inh: -1; D2 agonist: -0.8; CtBP-E1A inh: -11

How did COC(=O)[C@@H](NC(=O)NC(C)CCc1ccccc1)C(C)C (stereo not given in full) do in these assays?
gsp antag: -1%; gsp ag: 4%; D2 potentiator: -11; Six1-Eya2 inh: -4; D2 agonist: -2.7; CtBP-E1A inh: 12

How did O=S(=O)(NCCn1cccc1)c1ccc2ccccc2c1 do in these assays?
gsp antag: 2%; gsp ag: 21%; D2 potentiator: 3; Six1-Eya2 inh: -18; D2 agonist: 1.6; CtBP-E1A inh: -12

How did Cn1ccnc1C(OC(=O)c1ccc(Cl)cc1)C(F)(F)F (stereo not given) do in these assays?
gsp antag: -8%; gsp ag: 10%; D2 potentiator: 2; Six1-Eya2 inh: 9; D2 agonist: 4.9; CtBP-E1A inh: -7

What do the screens show for `CN(CC(=O)Nc1ccccc1Cl)C(=O)Cn1cc(C(F)(F)F)ccc1=O`?
gsp antag: 3%; gsp ag: -26%; D2 potentiator: 1; Six1-Eya2 inh: 25; D2 agonist: 0.9; CtBP-E1A inh: 7

How did COc1ccc(/C=N/OCC(=O)NCc2cccs2)c(OC)c1 do in these assays?
gsp antag: 0%; gsp ag: 3%; D2 potentiator: -11; Six1-Eya2 inh: 11; D2 agonist: -2.3; CtBP-E1A inh: 10

How did CCc1nnc(NC(=O)Cn2ccc(C(F)(F)F)n2)s1 do in these assays?
gsp antag: -1%; gsp ag: 8%; D2 potentiator: 7; Six1-Eya2 inh: 6; D2 agonist: -2.4; CtBP-E1A inh: -14

How did Cc1ccc(C)c(S(=O)(=O)C(C#N)c2nc3ccccc3nc2N2CCCC2)c1 (stereo not given) do in these assays?
gsp antag: 6%; gsp ag: 3%; D2 potentiator: 10; Six1-Eya2 inh: 5; D2 agonist: -0.8; CtBP-E1A inh: 3

What do the screens show for `COc1cccc(OCC(=O)NNC(=O)C(=O)Nc2cccc(C)c2)c1`?
gsp antag: 10%; gsp ag: -43%[inhibitor]; D2 potentiator: -3; Six1-Eya2 inh: -6; D2 agonist: -0.5; CtBP-E1A inh: -29

What do the screens show for `COc1ccc(/C=N/NC(=O)c2cnccn2)cc1O`?
gsp antag: -9%; gsp ag: -64%[inhibitor]; D2 potentiator: 1; Six1-Eya2 inh: 5; D2 agonist: -0.8; CtBP-E1A inh: 7

Results for NC(=O)c1nsc(C(=O)N(CC(=O)NCc2ccco2)c2ccccc2F)c1N ?
gsp antag: -7%; gsp ag: 14%; D2 potentiator: -4; Six1-Eya2 inh: 12; D2 agonist: -3.1; CtBP-E1A inh: -17

How did O=C(CCc1nc(-c2ccc(Cl)cc2)no1)OCc1ccc(Br)cc1 do in these assays?
gsp antag: 2%; gsp ag: -14%; D2 potentiator: -15; Six1-Eya2 inh: 104; D2 agonist: -3.2; CtBP-E1A inh: 73

What do the screens show for `Cc1cc2nc3c(c(C(F)(F)F)n2n1)CCCC3`?
gsp antag: -14%; gsp ag: 26%[15.4 µM]; D2 potentiator: -2; Six1-Eya2 inh: -1; D2 agonist: -3.2; CtBP-E1A inh: -8

What do the screens show for `O=C(NCc1ccccc1)C(c1ccncc1)N(C(=O)c1csnn1)c1cccc(F)c1` (stereo not given)?
gsp antag: 4%; gsp ag: 13%[15.4 µM]; D2 potentiator: -5; Six1-Eya2 inh: 6; D2 agonist: 0.2; CtBP-E1A inh: 9

What do the screens show for `CCNC(=S)Nc1sc2c(c1C#N)CCC(C)C2` (stereo not given)?
gsp antag: -7%; gsp ag: 7%[15.4 µM]; D2 potentiator: -5; Six1-Eya2 inh: inconclusive; D2 agonist: -7.3; CtBP-E1A inh: -19

How did COc1ccc(CCN=C(N)NS(=O)(=O)c2ccc(C)c(C)c2)cc1 do in these assays?
gsp antag: 1%; gsp ag: -28%; D2 potentiator: 0; Six1-Eya2 inh: 0; D2 agonist: 0.3; CtBP-E1A inh: 0
